Source: PubChem
GPR35 arrestin U2OS – GPR35 antagonists blocking zaprinast-driven arrestin recruitment, primary screen, imaging, U2OS, beta-arrestin-GFP, zaprinast agonist (AID 2058) | hit rate 0.052% among 290,000 | U2OS GPR35 beta-arrestin-GFP translocation imaging, zaprinast antagonism; higher % means a stronger effect | G-protein coupled receptor 35 (Homo sapiens) | inhibition, % at 10 µM, or IC50 in µM where a hit was titrated;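 active = inhibition of at least 50% with at least 30 cells and total cytoplasm GFP at most 10,000,000; inconclusive = under 30 cells or total GFP of 10,000,000 plus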
GPR55 activation – GPR55 agonists via beta-arrestin recruitment, primary screen, imaging, U2OS cells, beta-arrestin-GFP redistribution (AID 1961) | hit rate 0.048% among 290,000 | one-dose activation, % at 10 µM; EC50 in µM for titrated hits | U2OS GPR55 beta-arrestin-GFP redistribution imaging; higher % means a stronger effect;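 active = activation above 40% with more than 50 cells counted in the well; inconclusive = wells holding fewer than 50 cells, flagged as toxic or sparse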;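 note: U2OS osteosarcoma cells stably expressing GPR55 and beta-arrestin-GFP; plate controls were DMSO negative control for no effect and LPI positive control for full effect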
Myeloid diff 2 – induction of myeloid progenitor differentiation, primary screen, cell-based, flow cytometry, MLPCN library | AID 624256, 2012 | ER-HoxA9 myeloid progenitors, lysozyme-GFP differentiation | calls only at 10 µM | hit rate 1% among 360,000;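 active = normalized GFP-positive differentiation at or above the plate's own cutoff, the solvent-only control mean plus 3 SD; inconclusive = no clear call, values can overlap the other calls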;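 note: cells exposed to compound for four days before flow analysis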
GPR55 LPI antagonism – GPR55 antagonists blocking LPI-driven arrestin recruitment, primary screen, imaging, U2OS, beta-arrestin-GFP, LPI agonist (AID 2013); inhibition, % at 10 µM, or IC50 in µM where a hit was titrated; hit rate 0.13% among 290,000; G-protein coupled receptor 55 (Homo sapiens); U2OS GPR55 beta-arrestin-GFP translocation imaging, LPI antagonism; higher % means a stronger effect;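 active = spots per cell inhibited over 60%, with over 100 cells counted and total cytoplasm intensity under 500,000; inconclusive = wells with under 100 cells, flagged as likely toxic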;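 note: U2OS cells stably carrying GPR55 and arrestin-GFP stimulated by 5 µM LPI near EC80; imaged beta-arrestin-GFP aggregate spots per cell after agonist stimulation; plate controls were LPI-stimulated DMSO wells for no effect and DMSO wells without LPI for full effect; some results filed as inactive read as strong as hits; confirmed hits need IC50 under 10 µM and bright autofluorescent wells are also inconclusive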
HIV fusion peptide – inhibitors of HIV fusion peptide binding, primary screen, biochemical, uHTS, fluorescence dequenching (AID 1986); cell-free peptide binding, fluorescence dequenching, 30 min; higher % means a stronger effect; inhibition, % at 20 µM, or IC50 in µM where a hit was titrated; hit rate 0.3% among 290,000; in the data active = inhibition mostly above about 52%, no sharp cut-off; inactive = mostly below about 76%; note: some results filed as inactive read as strong as hits
Myeloid diff 2 GFP+ MAC1+ % – also measured in Myeloid diff 2; calls as there; GFP+ MAC1+ double positive, %; measured here: differentiation confirmed by MAC1 staining
Numbers without * were called inactive; i = inactive; ? = inconclusive; · = not tested or not shown; & = joins results of further samples.

1: O=c1cc(-c2ccccc2)nc2cc(-c3ccc(Br)cc3)[nH]n12
2: O=S(=O)(c1ccc(Cl)cc1)c1snnc1-c1ccccc1
3: O=Cc1cn(Cc2cccc([N+](=O)[O-])c2)c2ccccc12
4: C=C1C(=O)O[C@@H]2C[C@@H](C)[C@@H]3C=CC(=O)[C@@]3(C)[C@@H](OC(=O)CC(=O)O[C@H]3[C@@H]4C(=C)C(=O)O[C@@H]4C[C@@H](C)[C@@H]4C=CC(=O)[C@]43C)[C@H]12
5: Oc1ccc2c3c1O[C@H]1[C@@H](O)CC[C@@]4(O)[C@@H](C2)N(CC2CCC2)CC[C@]314
6: CC(NCc1ccc(Cl)cc1)C(O)c1ccccc1 (stereo unspecified)
7: CC(C)(C)c1ccc(S(=O)(=O)N2CC3CC(C2)c2cccc(=O)n2C3)cc1 (stereo unspecified)
8: Cc1ccc(-c2nc(NC(=O)c3nn(C)cc3[N+](=O)[O-])sc2C)cc1C

Compound	1	2	3	4	5	6	7	8
Myeloid diff 2	i	·	i	?	i	i	i	i
HIV fusion peptide	-0.5%	0.6%	-1.4%	9.6%	·	-2.4%	0.7%	-1.3%
GPR35 arrestin U2OS	-6%	5%	3%	8%	·	-4%	9%	-16%
Myeloid diff 2 GFP+ MAC1+ %	0.2	·	0.5	·	1.9&1.2	2.6	1.9	6.5
GPR55 LPI antagonism	0%	7%	-2%	1.8µM*	·	31%	6%	-1%
GPR55 activation	-0.1%	-0.1%	0.5%	1.4%	·	0.0%	0.0%	5.6%

9: COc1ccc(NS(=O)(=O)c2ccc(-c3coc(C)n3)cc2)cc1OC
10: CNC(=S)NC1CC2CCCC(C1)N2CC(C)C (stereo unspecified)
11: Cc1nc([N+](=O)[O-])c(Br)n1CC(=O)c1ccc2ccccc2c1
12: CCN1CCN(Cc2ccc(NC(=O)c3ccc(C)c(NC(=O)c4ccno4)c3)cc2C(F)(F)F)CC1
13: NC(=O)c1cn(C2OC(CO)C(O)C2O)c2ncnc(N)c12 (stereo unspecified)
14: Cc1noc2ncnc(N3CCN(c4cccc(Cl)c4)CC3)c12
15: Cc1ccc(C)c(-n2[nH]c3c4c(ccc3c2=O)C(=O)c2ccccc2C4=O)c1
16: COc1ccc2nc(Nc3nc(C)c(C(C)=O)s3)sc2c1

Compound	9	10	11	12	13	14	15	16
Myeloid diff 2	?	i	i	?	?	i	i	i
HIV fusion peptide	-0.1%	0.7%	10%	2.2%	2.0%	-1.0%	9.6%	1.0%
GPR35 arrestin U2OS	7%	2%	-2%	-3%	-2%	2%	9%	12%
Myeloid diff 2 GFP+ MAC1+ %	·	4.9	1.8	·	·	0.4	1.2	0.9
GPR55 LPI antagonism	-13%	27%	6%	3%	20%	0%	9%	-7%
GPR55 activation	-0.1%	0.3%	-0.1%	0.4%	0.1%	0.0%	-0.4%	-0.1%

17: COC(=O)[C@]12OC[C@]34C([C@@H](O)[C@@H]1O)[C@]1(C)CC(=O)C(O)=C(C)[C@@H]1C[C@H]3OC(=O)[C@H](O)[C@@H]24 (stereo partly specified)
18: CCCCN=C[C@]12CCC(O)CC1(O)CCC1[C@@H]2CC[C@]2(C)[C@H](C3C=CC(=O)O3)CCC12O (stereo partly specified)
19: CC(/C=C1\SC(=S)N(c2ccc(C(=O)O)cc2)C1=O)=C\c1ccccc1
20: O=c1nc(/C=C/c2ccc(Cl)cc2Cl)cc(C(F)(F)F)[nH]1
21: Cc1ccc2c(c1)N(C)/C(=C/c1cccc[n+]1C)S2
22: C(=NC12CN3CN(CN(C3)C1)C2)c1cccnc1

Compound	17	18	19	20	21	22
Myeloid diff 2	i	i	i	i	?	i
HIV fusion peptide	0.5%	1.5%	16µM*	32%	-1.0%	-0.8%
GPR35 arrestin U2OS	1%	17%	-4%	7%	-5%	7%
Myeloid diff 2 GFP+ MAC1+ %	1.9	0.9	0.6	0.9	·	0.2
GPR55 LPI antagonism	6%	-16%	-19%	25%	8%	-5%
GPR55 activation	0.6%	0.3%	-0.2%	0.3%	-0.1%	-0.1%

Compounds shown so far that contain sulfur:
2: O=S(=O)(c1ccc(Cl)cc1)c1snnc1-c1ccccc1
7: CC(C)(C)c1ccc(S(=O)(=O)N2CC3CC(C2)c2cccc(=O)n2C3)cc1 (stereo unspecified)
8: Cc1ccc(-c2nc(NC(=O)c3nn(C)cc3[N+](=O)[O-])sc2C)cc1C
9: COc1ccc(NS(=O)(=O)c2ccc(-c3coc(C)n3)cc2)cc1OC
10: CNC(=S)NC1CC2CCCC(C1)N2CC(C)C (stereo unspecified)
16: COc1ccc2nc(Nc3nc(C)c(C(C)=O)s3)sc2c1
19: CC(/C=C1\SC(=S)N(c2ccc(C(=O)O)cc2)C1=O)=C\c1ccccc1
21: Cc1ccc2c(c1)N(C)/C(=C/c1cccc[n+]1C)S2

Compound	2	7	8	9	10	16	19	21
Myeloid diff 2	·	i	i	?	i	i	i	?
HIV fusion peptide	0.6%	0.7%	-1.3%	-0.1%	0.7%	1.0%	16µM*	-1.0%
GPR35 arrestin U2OS	5%	9%	-16%	7%	2%	12%	-4%	-5%
Myeloid diff 2 GFP+ MAC1+ %	·	1.9	6.5	·	4.9	0.9	0.6	·
GPR55 LPI antagonism	7%	6%	-1%	-13%	27%	-7%	-19%	8%
GPR55 activation	-0.1%	0.0%	5.6%	-0.1%	0.3%	-0.1%	-0.2%	-0.1%

Some of the compounds tested; the hit share may differ from the screen's.
